Bioassay records as filed in PubChem.
Autofluor counter – compound fluorescence in toxin protease inhibitor counterscreen | compound autofluorescence counterscreen, microsphere flow cytometry; active compounds read high | fluorescence intensity (concentration not given with the values) | 3.1% of 360,000 active | AID 624483;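 active = at least 3 SD above the mean of all compounds, about 16000 in these data; inconclusive = too few beads counted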;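 also: 100 nL of 1 mM stock went into each well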
RN4220 kill – growth inhibition of S. aureus RN4220, primary screen, OD600; 16 h; inhibition, % (test concentration not listed); 0.33% of 330,000 active;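 active = z-score of -3 or lower and OD600 up to 0.18 on both plates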;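 also: plate controls were untreated cells for no effect and reference antibiotic for full effect; stock transfer was 100 nL into about 80 µL; one replicate is shown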
BJeLR lethal – MLPCN primary cell-based screen for lethality selective to Ras in HRASV12 cells | inhibition, % (test concentration not listed) | BJeLR (HRASV12) viability, CellTiter-Glo ATP luminescence, 48 h; reference of the scale not given here | 0.17% of 300,000 active;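 active = replicate mean above 50%; inconclusive = above 50% but judged a plate artefact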;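 also: 50 nL library stock added to about 25 µL; numbers are from one replicate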
Mtb hypoxia rep – PubChem AID 1159583; 0.1% of 300,000 active; fluorescence inhibition, % (concentration not given with the values); M. tuberculosis hypoxia-regulated fluorescent reporter, fluorescence;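 active = 35 to 45% if threefold the growth effect, above 45% if 1.5-fold the growth effect; inactive = the rest, general growth blockers included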;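 also: wells of about 50 µL received 100 nL stock; 0% = vehicle wells and 100% = reference inhibitor wells; whole bacteria with a GFP reporter of the hypoxia response; strong numbers were not always called active; many hits fall short of the cut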
PrP 5UTR inh – inhibition of PrP 5' UTR reporter expression | cell-based PrP 5' UTR mRNA reporter, plate reader | inhibition, % (no concentration beside the values) | 0.35% of 340,000 active;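 active = every replicate at 50% or more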;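 also: 0 = median of the neutral control wells; tested in H4 reporter cells; numbers are from one replicate; inactives centre near -14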
ugtP null kill – growth inhibition of ugtP-null S. aureus, primary screen, RN4220 ugtP deletion, OD600 | 16 h; some inactives read as strong as hits | growth inhibition, % (no concentration beside the values) | 0.54% of 330,000 active;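 active = z-score under -3 and OD600 up to 0.15 on both plates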;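 also: plate controls were untreated wells for no effect and antibiotic for full effect; wells of about 80 µL received 100 nL stock; the first replicate is given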
Mtb hypoxia rep growth – second read-out of Mtb hypoxia rep, no call of its own (marks repeat the call); growth inhibition, %; measured here: M. tuberculosis growth (absorbance);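 0% = vehicle and 100% = reference antibiotic; read after six days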
An asterisk follows results filed as active; ? = inconclusive; . = no result given; & = joins results of further samples; ! = not active in a repeat. Outcome played no part in choosing rows; any-hit rate near 4.1%.

Screens by letter – A = Autofluor counter; B = RN4220 kill; C = BJeLR lethal; D = Mtb hypoxia rep; E = Mtb hypoxia rep growth; F = PrP 5UTR inh; G = ugtP null kill
CCCCn1c(O)c(C(CC)=NCCN2CCCCC2)c(=O)[nH]c1=O
  A: 5028	B: -0.6	C: -2	D: -2	E: 8	F: -16	G: -1

CCc1c(C)nc2ccc(Br)cc2c1SCCC#N
  A: 2290	B: 7.8	C: -1	D: 16	E: -1	F: -17	G: 6

Cc1cc(C)cc(OC(=O)CCN2C(=O)C3C4C=CC(C5CC45)C3C2=O)c1 (configuration not stated)
  A: 2194	B: 10	C: 19	D: 3	E: 2	F: -6	G: -3

Cn1c(=O)c2c(ncn2CC(O)CNc2ccc(Cl)cc2)n(C)c1=O (configuration not stated)
  A: 2763	B: 1.8	C: 9	D: .	E: .	F: -15	G: 8

Nc1cc(Cl)nc(NN=Cc2ccccc2[N+](=O)[O-])n1
  A: .	B: 14	C: .	D: 5	E: 6	F: .	G: -4

CCOC(=O)C1=C(c2ccccc2)N=c2sc(=Cc3ccc(O)cc3)c(=O)n2C1c1cccs1 (configuration not stated)
  A: .	B: -6.5	C: .	D: -3	E: 10	F: .	G: 17

O=C1Nc2ccc(Br)cc2/C1=N\N=C\C1=C(N2CCOCC2)C(=C/c2ccccc2)/CC1
  A: ?	B: -0.9	C: .	D: 13	E: 15	F: -2	G: -6

COc1ccccc1-n1nnnc1SCC(=O)Nc1oc(C)c2c(C)n[nH]c(=O)c12
  A: ?	B: 2.8	C: 0	D: 3	E: 6	F: 2	G: 3

COc1ccc(C(=O)NCc2ccccn2)cc1
  A: 6369	B: -3.5	C: -10	D: -3	E: -1	F: 1	G: -7

COc1cc(NC(=O)COc2ccc(-n3ccnc3)cc2)cc(OC)c1
  A: 3882	B: 2.4	C: 2	D: 10	E: 5	F: -24	G: 6

O=C(Nc1ccc(-c2nnc3n2CCCCC3)cc1)c1cnccn1
  A: 2597	B: 7.3	C: -2	D: 5	E: 7	F: -2	G: 11

COc1ccccc1N=C1SCCCN1C
  A: 11163	B: -1.8	C: -4	D: -13	E: 11	F: -9	G: -2

O=C1CN(C(=O)c2cccc([N+](=O)[O-])c2)CC(=O)N1
  A: 3437	B: 3.8	C: -3	D: -7	E: 6	F: -11	G: 9

CC(=O)C1=C(O)C(=O)N(CCc2ccccc2)C1c1ccccc1[N+](=O)[O-] (configuration not stated)
  A: 2605	B: 0.7	C: -6	D: 1	E: 2	F: -4	G: 9

COC(=O)/C(=N/Nc1cccc(C)c1)N1CCCc2ccccc21
  A: 2107	B: .	C: -4	D: .	E: .	F: -16	G: .

O=c1[nH][nH]c2cc([N+](=O)[O-])ccc12
  A: 3742	B: -6.3	C: .	D: -10	E: 0	F: -28	G: 4

CCOc1cc(C(=O)N=c2sccn2C)ccc1OC(F)F
  A: 6318	B: 4.9	C: 2	D: 12	E: -5	F: -10	G: 3

COc1ccc(S(=O)(=O)N(C)C)cc1NC(=O)CCNC(=O)c1ccco1
  A: 3795	B: 6.2	C: -13	D: -13	E: 0	F: -26	G: -1

O=C(COc1ccccc1)NCC1COc2ccccc2O1 (configuration not stated)
  A: 3502	B: 4.4	C: -9	D: 13	E: 6	F: -42	G: 6

CS(=O)(=O)N(CC(=O)NCCSCc1ccccc1Cl)c1ccc(F)cc1
  A: .	B: 1.9	C: -9	D: -2	E: -2	F: -6	G: -4

COc1cccc(NC(=O)C2CC(=O)N/C(=N/NC(=O)c3ccc(C)cc3)S2)c1 (configuration not stated)
  A: 4416	B: 1.1	C: -2	D: 12	E: 7	F: -6	G: 0

Cc1nnc(SCC(C)C)[nH]c1=O
  A: 10280	B: 2.8	C: -13	D: 2	E: 6	F: -23	G: -3

Cc1nc2nc(C)c(CCC(=O)NC(C)c3ccc4c(c3)OCCO4)c(C)n2n1 (configuration not stated)
  A: 3157	B: 1.5	C: 14	D: .	E: .	F: -40	G: 5

CCc1c(C)n2nc(C)cc2[nH]c1=O
  A: 22318*	B: -4.4	C: 3	D: -4	E: 12	F: -17	G: -10

O=C(CSC1=NS(=O)(=O)c2cc(F)ccc2N1)Nc1ccc(F)cc1
  A: ?	B: .	C: -7	D: .	E: .	F: -18	G: .

COC(CNC(=O)c1ccc(N2CCc3ccccc32)c([N+](=O)[O-])c1)OC
  A: 2527	B: 1.4	C: -1	D: -5	E: 4	F: -26	G: -12

O=C(NCCCNCc1ccccc1)c1ccccn1
  A: 24330*!	B: -1.5	C: 2	D: 4	E: 9	F: 62*!	G: -3

COc1cc(C(=O)Nc2ccc(S(=O)(=O)Nc3cc(C)nc(C)n3)cc2)cc(OC)c1OC
  A: 4531	B: 4.3	C: 3	D: 17	E: 13	F: 2	G: 9

Cc1ccc(C)c(S(=O)(=O)N2CCN(C(=O)CCCc3c[nH]c4ccccc34)CC2)c1
  A: .	B: 4.4	C: -7	D: 8	E: -1	F: -7	G: -8

CC(C)(C)c1ccc(C(=O)NNC(=O)CNC(=O)c2cccs2)cc1
  A: 3954	B: 1.4	C: .	D: 5	E: 10	F: -1	G: 6

COc1ccc2[nH]c(C)c(CCN(Cc3cccs3)C(=S)Nc3cccc(F)c3)c2c1
  A: 6160	B: -3.0	C: -3	D: 3	E: 2	F: -6	G: 10

O=C(N/N=C/c1cccnc1)c1ccccc1Br
  A: 3839	B: .	C: -5	D: .	E: .	F: -19	G: .

N#C/C(=C\c1ccc(-c2cccc(Cl)c2)o1)C(=O)Nc1cccc2cccnc12
  A: 4617	B: 3.7	C: 4	D: .	E: .	F: 4	G: -11

CCOc1ccc(S(=O)(=O)N2CCN(C(=O)Cc3n[nH]c(=O)c4ccccc34)CC2)cc1
  A: 6633	B: 1.4	C: .	D: -12	E: 4	F: 6	G: 1

O=C(N/N=C/c1c(O)n(Cc2ccco2)c(=O)[nH]c1=O)c1ccccc1O
  A: 4931	B: 8.1	C: 4	D: -1	E: 3	F: -23	G: 6

OCCC1CC(O)C(O)[C@@]2(CCc3ccccc3O2)O1 (some centres not stated)
  A: .	B: 7.1&-0.5&0.7&5.3	C: .	D: 11&-12&-11&11	E: 16&7&2&4	F: .	G: 5&-1&-2&-5

CCC1CCCCN1CC(=O)c1c(C)[nH]c2ccc(OC)cc12 (configuration not stated)
  A: 5804	B: 2.0	C: 3	D: -2	E: 1	F: -18	G: 3

O=C(CN1C(=O)NC(c2ccccc2)(c2ccccc2)C1=O)NCC(=O)Nc1ccc(F)cc1
  A: 3646	B: -3.4	C: .	D: 9	E: 9	F: -20	G: -2

COc1ccc(-c2cc(CCC(=O)N3CCN(c4cc(C)ccc4C)CC3)[nH]n2)cc1
  A: 3853	B: 2.6	C: .	D: -12	E: -2	F: -8	G: 14

Cc1ccc(NCC(=O)NN=Cc2cccn2C)cc1
  A: .	B: 3.3	C: .	D: 4	E: -8	F: .	G: 10

COc1ccc(C(=O)N2c3ccccc3C=CC2C#N)cc1 (configuration not stated)
  A: 3159	B: 4.3	C: 4	D: -6	E: 3	F: -4	G: 3

Cc1noc(C)c1S(=O)(=O)NCC(=O)O
  A: 2521	B: 4.1	C: -10	D: .	E: .	F: -21	G: 0

Clc1ccccc1-c1ccc(/C=N/n2cnnc2)o1
  A: 16641*	B: .	C: 2	D: .	E: .	F: -10	G: .

O=C(CCCOc1ccc(Cl)cc1Cl)NN=CC1CCCCC1
  A: .	B: 7.1	C: .	D: 3	E: -1	F: .	G: -6

CCOC(=O)c1cc(S(=O)(=O)N2CCc3ccccc32)cn1C
  A: 6330	B: 4.2	C: 9	D: 6	E: 11	F: -7	G: 3

Looked up by structure from the entries so far, four records:
Screens by letter – A = Autofluor counter; B = RN4220 kill; C = BJeLR lethal; D = Mtb hypoxia rep; E = Mtb hypoxia rep growth; F = PrP 5UTR inh; G = ugtP null kill
O=C(N/N=C/c1c(O)n(Cc2ccco2)c(=O)[nH]c1=O)c1ccccc1O
  A: 4931	B: 8.1	C: 4	D: -1	E: 3	F: -23	G: 6

O=C(CN1C(=O)NC(c2ccccc2)(c2ccccc2)C1=O)NCC(=O)Nc1ccc(F)cc1
  A: 3646	B: -3.4	C: .	D: 9	E: 9	F: -20	G: -2

COc1ccc(C(=O)N2c3ccccc3C=CC2C#N)cc1 (configuration not stated)
  A: 3159	B: 4.3	C: 4	D: -6	E: 3	F: -4	G: 3

CCC1CCCCN1CC(=O)c1c(C)[nH]c2ccc(OC)cc12 (configuration not stated)
  A: 5804	B: 2.0	C: 3	D: -2	E: 1	F: -18	G: 3

New compounds follow:
Screens by letter – A = Autofluor counter; B = RN4220 kill; C = BJeLR lethal; D = Mtb hypoxia rep; E = Mtb hypoxia rep growth; F = PrP 5UTR inh; G = ugtP null kill
CCN1CCN(c2nc(Nc3cccc(F)c3)nc(N)c2[N+](=O)[O-])CC1
  A: 4590	B: 4.4	C: -1	D: -5	E: 5	F: -14	G: 4

COCCn1c(Cc2ccccc2)nnc1SCC(=O)N1CCOCC1
  A: 4477	B: 2.3	C: -7	D: 5	E: 9	F: -76	G: 7

Cc1ccc(C(=O)Nc2ccc(O)cc2C(=O)O)cc1
  A: 8453	B: 5.8	C: -1	D: 2	E: 2	F: 3	G: 11

CC(C)S(=O)(=O)c1csc(C(=O)NN)c1Cl
  A: .	B: 4.7	C: 0	D: -1	E: 5	F: .	G: 11

Cc1ccc(-c2csc3ncnc(SCc4ccc(C(=O)O)cc4)c23)cc1
  A: 4673	B: 13	C: 4	D: 9	E: 6	F: -23	G: 56

COc1ccc(C)cc1S(=O)(=O)N1CCN(C(=O)c2ncoc2-c2ccccc2C)CC1
  A: 4415	B: 6.8	C: -16	D: 4	E: 5	F: -21	G: 7

COc1ccc(S(N)(=O)=O)cc1N(C)S(=O)(=O)c1ccccc1
  A: 4027	B: 2.8	C: 0	D: 7	E: 5	F: -10	G: 10

CCN(CC)S(=O)(=O)c1cccc(C(=O)c2c(C)cc3ccccn23)c1
  A: 2136	B: 2.4	C: -2	D: 5	E: 2	F: -20	G: -11

O=C(O)c1ccc(/C=N/Nc2cccc(C(F)(F)F)c2)cc1
  A: 3717	B: .	C: 2	D: .	E: .	F: -34	G: .

N=C1c2ccccc2CN1NC(=O)c1ccccc1
  A: 1965	B: 2.7	C: -16	D: -2	E: 2	F: -3	G: 2

CCC(=O)Nc1sc2c(c1C(N)=O)CCN(C(C)=O)C2
  A: 6019	B: 4.6	C: -5	D: 9	E: 3	F: -22	G: 10

O=C(c1ccc(N2CCCS2(=O)=O)cc1)N1CCN(c2ccc(F)cc2)CC1
  A: 5833	B: 0.7	C: -6	D: 0	E: 3	F: -15	G: 0

O=C(NC(=S)Nc1ccc(CN2CCCCC2)cc1)c1ccco1
  A: 3638	B: 2.7	C: 5	D: 12	E: 7	F: -33	G: 7

Cc1ccc(Cl)cc1NC(=O)c1cccc(OC(F)F)c1
  A: 20132*	B: 4.4	C: 0	D: -1	E: 5	F: -12	G: -4

COCCn1nnnc1C(c1ccccc1OC)N1CCN(c2ccccc2)CC1 (configuration not stated)
  A: 2772	B: 0.8	C: -9	D: .	E: .	F: 2	G: 4

O=c1c(C=Nc2ccc(Oc3ccccc3)cc2)c[nH]n1-c1cccc(Cl)n1
  A: 6890	B: 3.9	C: 0	D: 0	E: 4	F: -23	G: 1

CCCN1Cc2cccc(C(=O)N3CCN(c4cc(Cl)ccc4C)CC3)c2C1=O
  A: 4788	B: -12	C: -18	D: -1	E: 9	F: -8	G: -3

COc1ccc(CCN(C)C(=O)CSc2nc3ccccc3c(=O)n2CC2CCCO2)cc1OC (configuration not stated)
  A: 4730	B: 6.0	C: .	D: 3	E: 7	F: 9	G: 10

Cc1cc(OCC(=O)O/N=C(\N)c2ccccc2)ccc1Br
  A: 1973	B: .	C: -14	D: .	E: .	F: -35	G: .

Cc1ccc(Cl)c(OCC(=O)N2CCc3ccccc3C2)c1
  A: 4285	B: 7.9	C: -8	D: 21	E: 8	F: -54	G: 6

Cc1cc(Oc2ccc(=O)n(C)n2)nc(SCC(N)=O)n1
  A: 6277	B: 3.9	C: 3	D: 3	E: -3	F: -15	G: 7

O=c1cc(-c2cccc3ccccc23)[nH][nH]1
  A: 3245	B: 21	C: -10	D: -1	E: 8	F: -17	G: 3

Cc1ccc(SCC(=O)Nc2ccccc2C(=O)N2CCOCC2)cc1
  A: 9733	B: 1.4	C: -4	D: 2	E: 9	F: -16	G: 5

Cc1ccccc1N/N=C/c1c(C)nc2ccccn12
  A: 4203	B: .	C: -8	D: .	E: .	F: 1	G: .

N#CCSc1nc2c(cc1C#N)CCCC2
  A: ?	B: 2.6	C: 5	D: 7	E: 5	F: 9	G: 4

CCCc1cc(C(=O)NNC(=S)Nc2cccc(C)c2)cs1
  A: 2127	B: -3.6	C: -11	D: 3	E: -3	F: -67	G: 5
